PV pol inh: poliovirus RdRp elongation inhibitors, primary screen, biochemical, fluorescence polarization, total intensity. Genome polyprotein (Poliovirus type 1 (strain Mahoney)), P03300. poliovirus polymerase elongation; stronger effect = lower value. % elongation, % (compound at 16.7 µg/mL). 150,000 compounds, 0.66% hits. AID 588519, 2011; in the data active = % elongation below about 90%; note: some results filed as inactive read as strong as hits
Target sequence (P03300 1749-2209 limits assumed): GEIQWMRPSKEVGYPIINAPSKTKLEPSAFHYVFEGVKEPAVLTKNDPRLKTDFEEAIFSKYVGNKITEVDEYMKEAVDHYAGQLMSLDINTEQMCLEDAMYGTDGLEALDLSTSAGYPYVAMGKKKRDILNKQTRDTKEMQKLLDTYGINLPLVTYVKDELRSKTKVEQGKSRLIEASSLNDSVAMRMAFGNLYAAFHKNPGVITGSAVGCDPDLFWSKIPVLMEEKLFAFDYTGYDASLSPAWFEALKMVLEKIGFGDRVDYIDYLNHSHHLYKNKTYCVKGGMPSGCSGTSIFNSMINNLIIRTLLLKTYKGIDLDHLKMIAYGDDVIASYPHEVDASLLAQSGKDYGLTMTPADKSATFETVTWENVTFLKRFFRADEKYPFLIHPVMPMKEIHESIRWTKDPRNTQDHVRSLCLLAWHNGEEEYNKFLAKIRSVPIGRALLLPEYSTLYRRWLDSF
PV pol inh intensity: also measured in PV pol inh; calls as there; % elongation; measured here: total intensity read-out; formula for this scale not given here;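 total fluorescence in place of polarization; lower means less elongation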
* = called active by the depositor. Not all compounds are listed; rates above refer to the full screens.

SMILES | PV pol inh | PV pol inh intensity
Cc1ccc(-n2nc3c(N4CCC(C(=O)NC5CCC(C)CC5)CC4)nnc(C)c3c2C)cc1 (stereo not given) | 103 | 109
COc1ccc(CNC(=O)c2ccc(-c3nc(CSc4ccccc4)c(C)o3)cc2)cc1 | 103 | 97
Cc1cccc(C(=O)Nc2ccccc2OCc2cc(=O)n3c(C)csc3n2)c1 | 106 | 109
CCOC(=O)c1nc(Nc2ccc(C(=O)OC)cc2)c2ccccc2n1 | 100 | 101
CSc1ncc(C(=O)NCc2ccc(F)cc2)c(-c2ccccc2)n1 | 102 | 103
Cc1nc2nc[nH]n2c(=O)c1CCC(=O)Nc1ccc(F)cc1 | 110 | 106
CCc1ccc(CNC(=O)c2ccc3nc(C(C)C)oc3c2)cc1 | 98 | 106
COc1ccc(N2CCN(CC(O)COc3ccc(C(C)(C)C)cc3)CC2)cc1 (stereo not given) | 101 | 100
Cc1ccccc1C(=O)n1nc(-c2ccco2)nc1NCc1ccc(Cl)cc1 | 109 | 110
COc1ccccc1-c1nn2c(=O)cc(CN3CCN(C(=O)/C=C/c4ccccc4)CC3)nc2s1 | 107 | 107
CCc1ccc(NC(=O)C(=O)NCC(c2cccnc2)N2CCN(C)CC2)cc1 (stereo not given) | 98 | 95
CS(=O)(=O)N1CCc2cc(C(=O)N3CCN(c4ccccc4)CC3)ccc21 | 104 | 108
COc1ccccc1CNC(=O)c1ccc2c(c1)N(Cc1ccc(C)cc1)CCS2 | 107 | 113
COc1ccc(CNC(=O)c2cc3c(s2)-c2c(C)cccc2OC3)cc1 | 103 | 110
COc1ccccc1C(=O)Nc1ccccc1C(=O)OCc1cc(=O)n2ccsc2n1 | 110 | 109
CC(=O)c1cccc(NC(=O)CCS(=O)(=O)c2ccc(Br)s2)c1 | 106 | 114
CCc1ccccc1NC(=O)Cn1c(=O)c2cccn2c2ccc(F)cc21 | 99 | 108
CCc1ccc(NC(=O)Cn2nnc(C(=O)NCc3ccco3)c2N)cc1 | 115 | 114
Cc1c(C(=O)Nc2ccccc2Cl)oc2ccc(S(=O)(=O)N3CCCCC3)cc12 | 101 | 98
COc1cc(C2C(=O)N(C3CCC(C)CC3)CC(=O)N2CCc2ccc(Cl)cc2)ccc1OC(C)C (stereo not given) | 114 | 111
CC(C)CCNC(=O)c1nn(C)c2c1CSc1ccccc1-2 | 105 | 110
COC(=O)CSc1nnc(-c2cccc(O)c2)o1 | 110 | 108
COc1cc(Cl)c(NC(=O)CCS(=O)(=O)c2cc3c(cc2Cl)NC(=O)CO3)c(OC)c1 | 111 | 110
CC(=O)N1CCc2c(sc3c2c(=O)n(-c2ccccc2)c(=O)n3CC(=O)c2ccccc2)C1 | 101 | 104
COc1c(C)cccc1C(=O)Nc1ccc(Cl)c(-c2nc3cc(C)ccc3o2)c1 | 107 | 108
Cc1ccc(C(=O)Nc2ccc3c(c2)N(C)C(=O)c2ccccc2S3)cc1 | 113 | 110
CC(C)Oc1ccc(C(=O)N(Cc2ccco2)Cc2cccs2)cc1 | 107 | 113
COC(=O)c1ccc(NC(=O)C(=O)NCC(c2cccnc2)N2CCN(c3ccccc3)CC2)cc1 (stereo not given) | 101 | 97
COc1ccc(CCNc2nc(-c3ccc(C)cc3)cc(C(F)F)n2)cc1OC | 101 | 102
Cc1ccc(-c2cc3c(n2-c2ccccc2F)CC(C)(C)CC3=O)cc1 | 110 | 111
O=C(Nc1ccc(F)cc1)C1CCN(c2nc3ccccc3n3cccc23)CC1 | 111 | 117
CCn1c(=O)c2cc(C(=O)NCCc3cccc(C)c3)sc2c2ccccc21 | 100 | 103
Cc1ccc(CCNC(=O)c2nn(C)c3c2CSc2ccccc2-3)cc1 | 104 | 110
Cc1ccc(CNc2oc(-c3ccc(COc4ccc(Cl)cc4)o3)nc2C#N)cc1 | 99 | 106
CCC(C)NC(=O)CSc1nc2cc3c(cc2c(=O)n1CCCCCC(=O)NCc1ccc(OC)cc1)OCO3 (stereo not given) | 110 | 107
Cc1ccc(-n2cnc3cc(C(=O)NC4CCCCCC4)ccc32)cc1Cl | 105 | 93
O=c1c2oc3ccccc3c2n(Cc2ccc(Cl)cc2)c(=O)n1Cc1ccccc1 | 111 | 100
Cc1ccc(CN2CCc3nc(N4CCN(C)CC4)ncc3C2)s1 | 108 | 106
COc1cc(Nc2ncc3c(n2)CCN(Cc2ccc(OC(C)C)c(OC)c2)C3)cc(OC)c1 | 100 | 96
Cc1cc(C)c(NC(=O)Cn2c(=O)c3cccn3c3ccccc32)c(C)c1 | 109 | 105
COc1cccc(-c2nc(SCC(=O)NCC3CCCO3)c(-c3ccc(Cl)cc3)[nH]2)c1 (stereo not given) | 110 | 111
CCOc1ccc(S(=O)(=O)NCc2ccc3c(c2)CCN3C(=O)c2ccc(C)cc2)cc1 | 109 | 111
Cc1nc2c(C(=O)NCCCN(CC(C)C)CC(C)C)cnn2c(C)c1Cc1c(F)cccc1Cl | 114 | 113
O=c1c2cccnc2n(Cc2ccccc2F)c(=O)n1Cc1ccccc1Cl | 105 | 112
COc1ccc(CCC(=O)NCc2nc3cccnc3n2Cc2ccc(F)cc2)cc1 | 102 | 98
CC(C)(C)C1CCc2c(sc(NC(=O)Cn3nnc(-c4ccccc4F)n3)c2C#N)C1 (stereo not given) | 100 | 106
Cc1cc(C)c(NC(=O)CSc2nc(C)cc(C)c2C#N)c(C)c1 | 102 | 102
Cc1ccccc1Nc1c(-c2ccc(N3CCOCC3)cc2)nc2ccc(Cl)cn12 | 114 | 107
CCN1C(=O)c2ccccc2S(=O)c2ccc(C(=O)N3CCN(c4ccccc4)CC3)cc21 (stereo not given) | 106 | 103
O=C(Cc1ccc(Cl)cc1)NCC(c1cccs1)S(=O)(=O)c1ccc(Cl)cc1 (stereo not given) | 110 | 110
CCOC(=O)C(C)Sc1ccc2nnc(CCNS(=O)(=O)c3ccccc3)n2n1 (stereo not given) | 108 | 109
COc1ccc(Cn2c(CCC(=O)Nc3cc(OC)c(OC)c(OC)c3)nc3cccnc32)cc1 | 103 | 103
Nc1c(C(=O)Nc2cccc(Cl)c2)sc2nc3c(cc12)CN(Cc1ccccc1)CC3 | 109 | 115
COc1ccc(Nc2nnc(-c3ccc(C)c(S(=O)(=O)NCc4nc5ccccc5[nH]4)c3)c3ccccc23)cc1 | 107 | 106
Cc1ccc(NC(=O)Cn2c(=O)n(Cc3nc(C)no3)c(=O)c3cc4c(cc32)OCO4)c(Cl)c1 | 104 | 107
Cc1cccc(NC(=O)c2cc3c([nH]c2=O)CC(c2ccccc2)CC3=O)c1 (stereo not given) | 99 | 108
COc1ccccc1CNC(=O)c1cc2sccc2n1Cc1ccc(F)cc1 | 107 | 101
Cc1ccc(Cn2c(CNC(=O)Cc3cccc(C)c3)nc3cccnc32)cc1 | 116 | 125
Cc1cc2c(cc1NC(=O)c1ccccc1C)n(C)c(=O)c(=O)n2C | 99 | 106
CCOC(=O)c1c(NC(=O)c2nc(SCC)ncc2Cl)sc2c1CCCC2 | 118 | 117

The listing continues:
SMILES | PV pol inh | PV pol inh intensity
Cc1ccc(Cl)cc1NC(=O)Nc1c(C)n(C)n(-c2ccccc2)c1=O | 108 | 104
COc1cccc(-c2csc(-c3c(N)c(C(=O)c4ccccc4)n4ccccc34)n2)c1 | 107 | 110
COC(=O)c1ccccc1NC(=O)CCCS(=O)(=O)c1nc(-c2ccccc2OC)cc(C(F)(F)F)n1 | 107 | 113
CCOc1cccc(CC(=O)NCc2ccc3c(c2)CCN3C(=O)c2cccc(C)c2)c1OCC | 99 | 105
CCc1nc2ccccc2n1CCCCOc1cccc(C)c1 | 111 | 109
CCOC(=O)C1CCN(S(=O)(=O)c2ccc(N3CCCCS3(=O)=O)cc2)CC1 | 103 | 104
COCCNC(=O)C(=O)Nc1ccc2nc3n(c(=O)c2c1)CCCCC3 | 109 | 112
O=C(Cn1c(=O)n2nc(-c3cccc(F)c3)nc2c2ccccc21)N1CCN(c2ccc(F)cc2)CC1 | 113 | 111
COCCNC(=O)CSc1nc(-c2ccccc2)[nH]c1-c1ccc(C)cc1 | 108 | 106
COc1cccc2c(C)cc3nnc(SCC(=O)Nc4ccc(C)cc4)n3c12 | 98 | 102
COc1ccc(-n2c(=O)c3ccccc3n(Cc3ccccc3Cl)c2=O)cc1 | 106 | 107
CCC(CC)C(=O)Nc1ccc2nc(SCC(=O)N3CCCC3)sc2c1 | 99 | 94
COc1ccccc1OCC(=O)NC1CC(=O)N(c2ccc3c(c2)OCCO3)C1 (stereo not given) | 100 | 100
Cc1ccccc1Nc1c(-c2ccncc2)nc2ccc(Cl)cn12 | 113 | 108
CCc1ccc(NC(=O)CN2CCN(Cc3ccccc3)S2(=O)=O)cc1 | 105 | 107
Cc1cc2n(n1)CCC(=O)N2Cc1ccc(C(=O)Nc2ccc(Br)c(C)c2)cc1 | 104 | 107
CCOc1ccc(-n2nc(CO)c(C(=O)NCc3ccccn3)n2)cc1 | 108 | 105
O=C(NCc1ccccc1)C1CCN(S(=O)(=O)Cc2ccccc2)CC1 | 107 | 100
COCCCNC(=O)CCCN1C(=O)CCn2nc(-c3cn(C)c4ccccc34)cc21 | 110 | 113
Cc1ccc2nc(-c3ccsc3)c(Nc3ccccc3C)n2c1 | 115 | 113
CCCCNC(=O)CCn1c(=O)c2ccccc2n(Cc2cccc(Cl)c2)c1=O | 107 | 107
COc1ccc(-c2nc3scc(CCNC(=O)c4cc(OC)cc(OC)c4)n3n2)cc1 | 110 | 113
CCOc1ccc(N2CC(c3nc4ccccc4n3CC(C)C)CC2=O)cc1 (stereo not given) | 112 | 110
Cn1c(=O)c(=O)n(C)c2cc(NS(=O)(=O)c3ccc(Br)cc3)c(Cl)cc21 | 103 | 103
CCC1CCCCN1CCCNC(=O)c1cc2c(=O)n(CC)c3ccccc3c2s1 (stereo not given) | 103 | 106
CCOc1ccc(NC(=O)Cn2c(=O)n(CCCCC(=O)NCc3ccc4c(c3)OCO4)c(=O)c3ccccc32)cc1 | 110 | 114
CC(=O)C1=C(c2ccccc2)N(C(C)=O)n2c(nnc2C2CCCCC2)S1 | 111 | 98
Cc1cccc(N2CCN(C(=O)CN3C(=O)COc4ccc(S(=O)(=O)N5CCOCC5)cc43)CC2)c1C | 107 | 110
COc1ccc(N2C(=O)CS(=O)(=O)C23C(=O)N(Cc2cccc(F)c2)c2ccccc23)cc1OC (stereo not given) | 100 | 107
CC1=C(C(=O)NCCc2ccc(Cl)cc2)C2(CCCCC2)OC1=O | 110 | 111
CCOC(=O)c1c(C)[nH]c(C)c1S(=O)(=O)NCC(=O)Nc1cccc(SC)c1 | 104 | 110
Cc1ccc2c(c1)C(=O)C(=O)N2Cc1ccc(OC(C)C)cc1 | 101 | 105
Cc1ccc(C2CC(=O)N(Cc3ccccc3F)c3c2c(C)nn3-c2nc(C)cc(C)n2)cc1 (stereo not given) | 112 | 114
COc1cccc(-n2c(SCC(=O)Nc3ccc(F)cc3F)nc3c([nH]c4ccccc43)c2=O)c1 | 110 | 102
Cc1cc(C)cc(NC(=O)Cn2nnc(C(=O)NCCc3ccccc3)c2N)c1 | 107 | 106
COc1ccc(CNC(=O)CCc2c(C)nc3cc(-c4ccc(OC)cc4OC)nn3c2C)cc1 | 107 | 107
Cc1cc(Cl)ccc1NC(=O)CN1C(=O)COc2ccc(S(=O)(=O)N3CCC(C)CC3)cc21 | 107 | 104
O=C(CCC1N=C2c3ccccc3N=C(SCC(=O)Nc3ccccc3F)N2C1=O)NCc1ccco1 (stereo not given) | 108 | 112
CC(C)Oc1ccc(CNC(=O)c2ccc(CN3CC(=O)N4CCCCC4C3=O)cc2)cc1 (stereo not given) | 107 | 104
Cc1cc(C)c(NC(=O)Cn2c(=O)n(CCCCC(=O)NCc3ccccc3Cl)c(=O)c3ccccc32)c(C)c1 | 107 | 110
CC(C)Nc1ccc(-c2nc(-c3ccco3)no2)cc1[N+](=O)[O-] | 110 | 98
O=C(NCc1cccc(F)c1)c1ccc(-n2cnc3cccnc32)cc1 | 105 | 106
Cc1ccc(-n2ncc(C(=O)NCCCN3CCc4ccccc4C3)c2C2CCN(C(=O)OC(C)(C)C)CC2)cc1C | 99 | 106
CCC1CCc2c(sc(NC(=O)C3c4ccccc4Oc4ccccc43)c2C(=O)OC)C1 (stereo not given) | 102 | 105
CCc1cc(=O)oc2c3c(c(Cl)cc12)OCN(Cc1cccc(OC)c1)C3 | 101 | 109
COc1ccc(/C=C\C(=O)NC2CC(=O)N(c3ccccc3)C2)cc1OC (stereo not given) | 109 | 105
CCOC(=O)c1ccccc1NC(=O)CSc1nc2ccncc2[nH]1 | 102 | 106
COc1cccc(N2CCN(C(=O)c3c4c(nc5ccccc35)C(=O)N(C3CCCCC3)C4)CC2)c1 | 104 | 114
Cc1ccc(-n2nc(C(=O)NC(C)C)c(=O)n(C)c2=O)cc1 | 105 | 109
CC(=O)Nc1ccc(NC(=O)Cn2c(=O)ccc3cc(S(=O)(=O)N4CCC(C)CC4)ccc32)cc1 | 106 | 111
CCc1c(-c2ccccc2)nc2ccccc2c1C(=O)NC(C)c1ccccc1 (stereo not given) | 104 | 106
COc1ccc(CNc2nc3c(c(=O)n(C)c(=O)n3C)n2Cc2ccccc2Cl)cc1 | 108 | 109
Cc1ccc(Cl)cc1NC(=O)Cc1ccc(-n2c(C)nc3cccnc32)cc1 | 109 | 105
CCOC(=O)Cc1c(C)nc2c(-c3ccc(Cl)cc3)c(C(F)(F)F)nn2c1C | 105 | 104

Compound profiles, as listed above.
Results for CCOC(=O)Cc1c(C)nc2c(-c3ccc(Cl)cc3)c(C(F)(F)F)nn2c1C = PV pol inh: 105; PV pol inh intensity: 104
Results for CCC1CCc2c(sc(NC(=O)C3c4ccccc4Oc4ccccc43)c2C(=O)OC)C1 (stereo not given) = PV pol inh: 102; PV pol inh intensity: 105

Four entries from above in a different format:
Values run as follows: PV pol inh, PV pol inh intensity
- Cc1ccc(-n2ncc(C(=O)NCCCN3CCc4ccccc4C3)c2C2CCN(C(=O)OC(C)(C)C)CC2)cc1C
    99, 106
- CCC1CCc2c(sc(NC(=O)C3c4ccccc4Oc4ccccc43)c2C(=O)OC)C1 (stereo not given)
    102, 105
- CCc1cc(=O)oc2c3c(c(Cl)cc12)OCN(Cc1cccc(OC)c1)C3
    101, 109
- COc1ccc(/C=C\C(=O)NC2CC(=O)N(c3ccccc3)C2)cc1OC (stereo not given)
    109, 105

Assay outcomes: PubChem BioAssay, ICCB-Longwood Screening Facility, Harvard Medical School
